Hsc70 ATP site – small molecules displacing fluorescent ligand from Hsc70 – biochemical, fluorescence polarization, primary screen (AID 568). Hsc70 fluorescence polarization, probe displacement; higher % means a stronger effect; strong numbers were not always called active. displacement, % at 20 µM; hits with a dose series show IC50 in µM. 83,000 tested, under 10 active;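 active means displacement above 50% without optical interference and an IC50 on retest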;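 further: ATPase domain with a fluorescein-tagged ATP probe; 0% = vehicle and 100% = excess ADP; read after one hour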
MT1-MMP reporter – MT1-MMP gene expression reporter suppression – cell-based, luciferase reporter, luminescence (AID 618). 87,000 tested, 0.62% active. calls from a first round at 10 µM; hits with a dose series show EC50 in µM. MT1-MMP promoter luciferase reporter cells, luminescence;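 active means over half of the reporter light lost at 10 µM or EC50 under 50 µM; inactive means the rest and hits that failed the dose series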;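 further: actives suppress MT1-MMP promoter-driven transcription so potencies describe inhibitors; HT1080 fibrosarcoma cells; overnight exposure; toxic or luciferase-blocking compounds were not removed from the actives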
WNV NS2B-NS3 inh – WNV NS2B-NS3 proteinase inhibition. P06935. 65,000 tested, 0.18% active. z-score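 (tested at a level between 10 and 100 µM)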. AID 577. WNV NS2B-NS3 protease, fluorogenic substrate Ex360/Em465; stronger effect = lower value;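 active means z-score at -3 or under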;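 further: score is relative to mean and spread of the compound wells of a plate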
Target sequence (P06935 1371-1501 limits assumed): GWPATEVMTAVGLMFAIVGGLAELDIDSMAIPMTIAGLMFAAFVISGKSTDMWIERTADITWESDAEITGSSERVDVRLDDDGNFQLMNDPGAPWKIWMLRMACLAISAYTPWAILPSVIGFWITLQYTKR
Target sequence (P06935 1502-1679 limits assumed): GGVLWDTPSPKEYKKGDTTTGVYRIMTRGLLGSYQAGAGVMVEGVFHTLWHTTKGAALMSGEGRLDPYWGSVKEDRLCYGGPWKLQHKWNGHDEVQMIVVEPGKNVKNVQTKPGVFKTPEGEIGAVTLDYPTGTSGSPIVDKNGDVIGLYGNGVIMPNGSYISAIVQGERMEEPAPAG
* = called active by the depositor; i = inactive; / = not tested or not shown; & = joins results of further samples. Not all compounds are listed; the hit share may differ from the screen's.

Every second line gives: Hsc70 ATP site | MT1-MMP reporter | WNV NS2B-NS3 inh
> COc1ccc(C(=O)CSc2nnc(-c3ccc(C)cc3)o2)cc1
    6.9% | i | -4.1*
> Cc1cc(C(=O)CSc2nncs2)c(C)n1-c1c(C)n(C)n(-c2ccccc2)c1=O
    2.8% | i | 0.21
> Cc1ccc2[nH]c(=O)c(CN(CCCN3CCOCC3)C(=O)Nc3cccc(Cl)c3)cc2c1
    -4.6% | i | -0.09
> COc1ccc(NS(=O)(=O)c2cc(C)ccc2C)cc1
    -4.1% | i | 1.3
> Cn1cccc1Cc1nnc(SCC(=O)NCC2CCCO2)n1CCc1ccccc1 (stereo unspecified)
    -4.9% | i | 0.84
> O=c1c2ccccc2c(C=NCCO)c(O)n1-c1ccccc1
    -4.3% | i | -1.1
> COc1ccc(C2(C(=O)NC(C)C)CCCC2)cc1OC
    -1.4% | i | 1.2
> COc1cc(C(=O)N(Cc2ccc(F)cc2)C2CCS(=O)(=O)C2)cc(OC)c1OC (stereo unspecified)
    4.6% | i | /
> O=C1NC(=O)C(c2ccccc2)(c2ccccc2)N1
    -5.7%&1.7% | i | -3
> COc1ccccc1CN1CC(C(=O)NCC2CCCO2)CC1=O (stereo unspecified)
    -4.7% | i | -1.5
> Cc1ccc(OCCSc2ncnc3nc[nH]c23)cc1
    4.5% | i | /
> O=C(c1cnc2c(c1)COc1ccc(Cl)cc1-2)c1ccccc1O
    3.4% | i | /
> O=C(O)COCc1nc2ccccc2[nH]1
    -5.4% | i | 0.4
> Cc1ccccc1CSCCNC(=O)CN(c1ccc2c(c1)OCO2)S(C)(=O)=O
    -0.8% | i | 0.57
> CCCC(O)(CCN(C)C)c1ccc(OC)cc1 (stereo unspecified)
    -0.9% | i | -0.07

A second format for 4 compounds above.
> O=C(c1cnc2c(c1)COc1ccc(Cl)cc1-2)c1ccccc1O
  Hsc70 ATP site: 3.4%
  MT1-MMP reporter: i
  WNV NS2B-NS3 inh: /

> O=c1c2ccccc2c(C=NCCO)c(O)n1-c1ccccc1
  Hsc70 ATP site: -4.3%
  MT1-MMP reporter: i
  WNV NS2B-NS3 inh: -1.1

> COc1ccc(NS(=O)(=O)c2cc(C)ccc2C)cc1
  Hsc70 ATP site: -4.1%
  MT1-MMP reporter: i
  WNV NS2B-NS3 inh: 1.3

> O=C1NC(=O)C(c2ccccc2)(c2ccccc2)N1
  Hsc70 ATP site: -5.7%&1.7%
  MT1-MMP reporter: i
  WNV NS2B-NS3 inh: -3

More records.
Every second line gives: Hsc70 ATP site | MT1-MMP reporter | WNV NS2B-NS3 inh
> COc1cccc2cc3c(=O)n(-c4ccccc4)nc-3oc12
    0.5% | i | -0.87
> Cc1nc2nc(-c3ccccc3)[nH]n2c(=O)c1Cc1ccccc1
    5.9% | i | -1.1
> Cc1sc2ncnc(N3CCOCC3)c2c1C
    4.2% | i | /
> Cc1cccc(-c2nc3c(c(SCC(=O)N4CCOCC4)n2)CCCC3)c1
    -0.6% | i | /
> COc1ccc2c(c1)NC1(O)c3ccccc3C(=O)C21O (stereo unspecified)
    2.6% | i | 1.2
> COc1ccc(Br)cc1-c1noc(-c2ccncc2)n1
    -1.7% | i | -0.7
> Cc1ccccc1SCC(=O)NC1CCOC1=O (stereo unspecified)
    1.9% | i | 0.0057
> CCCC(C)C(=O)Nc1ccc(C(N)=O)cc1 (stereo unspecified)
    0.1% | i | -0.69
> C[C@H](NC(=O)OC(C)(C)C)c1nnc(SCC(=O)Nc2ccc(Br)cc2)o1
    -12% | i | 0.13
> CCOC(=O)c1c(NC(=O)CSc2nc3c(c(=O)n(C)c(=O)n3C)n2C(C)C)sc(C)c1C
    -2.9% | i | -0.38
> CCC1CCc2c(sc(NC(=O)c3ccco3)c2C(N)=O)C1 (stereo unspecified)
    0.7% | i | /
> CN(C)CCOC(=O)Cc1ccc(Cl)cc1
    6.1% | i | 0.0054
> Nc1nnc(SCc2cc3c(cc2Cl)OCO3)s1
    5.0% | i | -0.15
> Cc1ccc2[nH]c(=O)c(CN(CC3CCCO3)C(=O)c3ccco3)cc2c1 (stereo unspecified)
    4.3% | i | 0.66
> Cc1cccc(N2C(N)=C(C#N)C(C#N)(C#N)C2c2ccccc2)c1 (stereo unspecified)
    3.1% | i | 1.1
> Cn1cnnc1SCC(=O)NC(=O)NC1CCCC1
    1.2% | i | -0.61
> O=C(NCCCN1CCCC1=O)c1ccc2c(c1)ncn2C1CCCCC1
    -0.9% | i | -0.4
> c1cnn(-c2nc(N3CCOCC3)nc(N3CCOCC3)n2)c1
    0.2% | i | 2.8
> CC(NC(=O)c1ccc(NS(C)(=O)=O)cc1)c1ccccc1 (stereo unspecified)
    4.9% | i | 0.3
> O=C(NCc1ccccn1)c1cnc2sccn2c1=O
    3.8% | i | -1
> O=C(CSc1nnc(NC(=O)C2CCC2)s1)Nc1ccc(N2CCOCC2)cc1
    0.2% | i | -0.0052
> COc1ccc(N2CC(O)=C(c3nc4ccccc4s3)C2=N)cc1
    10% | i | 0.16
> CCc1nnc(NC(=O)C2CCN(c3nc(C)cc(C)n3)CC2)s1
    3.6% | i | -1
> O=C(NC1CC1)c1c[nH]c2ccc(S(=O)(=O)Nc3cccc(C(F)(F)F)c3)cc2c1=O
    1.9% | i | 0.23
> O=C(NCCC1=CCCCC1)C1CCN(S(=O)(=O)c2cnc[nH]2)CC1
    1.7% | i | 0.61
> Cc1cc(C)c(C)c(OCC(=O)NCc2nc(-c3ccccc3)no2)c1
    2.8% | i | -0.52
> CCn1c(Cc2ccccc2)nnc1SCC(=O)Nc1ccc(N)cc1
    6.1% | i | /
> O=C(CCSCCC(=O)NCc1ccco1)NCc1ccco1
    -3.8% | i | 0.47
> COc1ccccc1NC(=O)N1CCN(c2ccccc2F)CC1
    -0.3% | i | -0.12
> Cc1nnc(SCCn2c(N(C)Cc3ccccc3)nc3c2c(=O)n(C)c(=O)n3C)s1
    0.3% | i | -0.3
> COc1ccc(OC)c(N/C=C2/CCCCC2=O)c1
    -0.5% | i | -0.41
> O=C(COc1ccccc1Cl)N(Cc1ccco1)C1CCS(=O)(=O)C1 (stereo unspecified)
    -13% | i | -0.06
> Cc1ccc(S(=O)(=O)N2CCN(C(=O)N(C)C)CC2)cc1C
    2.8% | i | -0.08
> O=C(Nc1ccccc1)C1=C(O)CC(c2ccco2)CC1=Nc1ccccc1 (stereo unspecified)
    3.0% | i | -0.48
> Cn1nnnc1SCC(=O)Nc1ccccc1Cc1ccccc1
    0.0% | i | -0.34
> Cc1ncc(CO)c2cc(C(N)=O)c(=Nc3ccccc3)oc12
    0.3% | i | 0.9
> Cc1ccc(C)c(Cn2c(CO)nc3ccccc32)c1
    1.0% | i | 1.4
> COC(=O)C(Cc1ccccc1)NC(=O)CSc1nc(N)cc(=O)[nH]1 (stereo unspecified)
    4.7% | i | 0.8
> COc1ccc(Cn2nnnc2CN2CCOCC2)cc1
    0.1% | i | -0.45
> N#C/C(=C(/O)COC(=O)CCCNC(=O)c1ccc(Cl)cc1)c1nc2ccccc2[nH]1
    -14% | i | 2
> O=C(CNCC1CCCO1)Nc1ccccc1N1CCCCCC1 (stereo unspecified)
    -3.1% | i | /
> Nc1nonc1-n1nnc(C(=O)c2ccccc2)c1-c1ccccc1
    6.5% | i | 1.4
> CC1(C)NC(C)(C)c2nonc2/C1=N\O
    5.1% | i | -0.6
> O=C(CC1Oc2ccccc2NC1=O)NC1CC1 (stereo unspecified)
    4.1% | i | -0.52
> CC(Oc1ccccc1)C(=O)Nc1cccc(F)c1 (stereo unspecified)
    3.3% | i | /
> COc1ccc(CNC(=O)CSc2nnc(Cn3nnc4ccccc43)n2C)cc1
    0.4% | i | /
> Cc1ccccc1-n1c(Cn2c(=O)sc3ccccc32)nnc1SCC(=O)NCC1CCCO1 (stereo unspecified)
    4.8% | i | -2
> CC(C)N(Cc1nc(-c2ccccc2)no1)C(=O)Cc1ccccc1
    8.5% | i | 1.7
> CCCCSCCCNC(=O)CS(=O)Cc1nc(-c2cccc(C)c2)oc1C (stereo unspecified)
    -7.8% | i | -0.33
> CSC1=C(C#N)C(c2ccccc2Cl)C(C(C)=O)=C(C)N1 (stereo unspecified)
    -5.6% | i | /
> COC(=O)C1(C)NC(c2ccco2)C2C(=O)N(c3ccc(C)cc3)C(=O)C21 (stereo unspecified)
    -1.7% | i | -0.05
> COC(=O)c1ccc(OC(=O)C2CC(=O)N(c3cccc(C)c3)C2)cc1 (stereo unspecified)
    -0.5% | i | -0.14
> COC(=O)C(NC=O)C(O)(Cc1ccccc1)C(F)(F)F (stereo unspecified)
    1.8% | i | -0.11
> CC1CCCN(CCC(=O)Nc2ccc3c(c2)CCC3)C1 (stereo unspecified)
    1.3% | i | /
> CC1CCN(C(=O)C2CCN(S(=O)(=O)c3cnc[nH]3)CC2)CC1
    -1.2% | i | -0.41
> Cc1sc2nc(SCC(=O)NCCO)n(C)c(=O)c2c1C
    -2.0% | i | -0.21
> O=C(Nc1ccc(N2CCCCC2)cc1)c1ccc2c(c1)OCCO2
    1.2% | i | /
> Cc1cc(C)nc(Nc2ccc(N3CCOCC3)cc2)n1
    4.9% | i | -1.6
> O=C(NCC1CCCO1)C1CCCN1C(=O)NC1CCCCC1 (stereo unspecified)
    -3.0% | i | -1.2
> Cc1cc(NC(=O)c2cccc(S(=O)(=O)N3CC(c4ccccc4)CC3=O)c2)no1 (stereo unspecified)
    -2.5% | i | -0.01

Remaining list, next part:
Every second line gives: Hsc70 ATP site | MT1-MMP reporter | WNV NS2B-NS3 inh
> Cn1c(Cn2c(=O)sc3ccccc32)nnc1SCC(=O)NCc1ccccc1
    -2.0% | i | -0.11
> COc1ccc2c(C)c(Cl)c(=O)oc2c1
    11% | i | 0.53
> COc1ccc(Cl)cc1-c1nc(-c2ccc(NC(=O)c3ccncc3)cc2)no1
    -38% | i | -0.39
> O=C(c1cc2c(s1)-c1ccccc1OC2)N1CCCC1
    -0.8% | i | 2.8
> COc1ccc(OC)c(C2Nc3nc4ccccc4n3C(C)=C2C(=O)Nc2ccc(C)cc2C)c1 (stereo unspecified)
    -2.3% | i | /
> O=C(OCc1c(F)cccc1Cl)c1cnccn1
    -4.1% | i | -0.57
> COc1ccc(N(C)S(=O)(=O)c2c(C)[nH]c(=O)[nH]c2=O)cc1
    -8.7% | i | -0.73
> O=C(c1ccc(CS(=O)(=O)c2c(Cl)cccc2Cl)o1)N1CCN(c2ccccn2)CC1
    -1.0% | i | -0.18
> COc1ccc(Nc2ncnc3c2oc2ccccc23)cc1
    3.2% | i | 0.01
> CN(CC(=O)N1CCN(c2ccccc2)CC1)S(=O)(=O)c1cnc[nH]1
    -4.0% | i | 0.31
> Cc1cccc2cc(CN(Cc3cccs3)C3(c4nnnn4C4CCCC4)CCCC3)c(=O)[nH]c12
    -1.2% | i | -0.43
> Cc1ccc(/C=N/NC(=O)c2c[nH]c3ccccc23)o1
    -5.1% | i | /
> O=C1[C@@H]2[C@H](Cc3ccc(O)cc3)N[C@]3(C(=O)Nc4ccccc43)[C@@H]2C(=O)N1c1ccc(F)cc1
    8.8% | i | -0.22
> O=P(O)(CCc1ccccc1)CN1CCCCC1
    -1.3% | i | -1.2
> CCOC(=O)Cc1csc(NC(=O)c2csc(C)c2)n1
    3.0% | i | -0.04
> COc1cccc(-n2ccnc2SCC(=O)Nc2ccccc2)c1
    1.8% | i | -1.1
> COc1ccc(S(=O)(=O)N/N=C\c2ccc(OC)c(COc3ccc(C)cc3[N+](=O)[O-])c2)cc1
    5.5% | i | /
> CCOC(=O)C1CCCN(C(=O)Cc2c(F)cccc2Cl)C1 (stereo unspecified)
    -2.8% | i | 1.5
> Brc1c(CSc2nnc(-c3ccco3)o2)nc2ccccn12
    1.6% | i | 0.44
> C/C(=C\C(=O)c1ccc(F)cc1)Nc1ccc(N2CCOCC2)cc1
    7.3% | i | -0.35
> CCc1ccc(C2CC(c3cccc(Cl)c3)n3nc(N)nc3N2)cc1 (stereo unspecified)
    1.0% | i | -0.77
> CC(=O)c1c(C)[nH]c(C(=O)OCCCCN2C(=O)c3ccccc3C2=O)c1C
    1.0% | i | 0.99
> CN(C)CCCn1c(N)c(C#N)c2nc(C#N)c(C#N)nc21
    -4.1% | i | -0.08
> CS(=O)(=O)N(CC(=O)N1CCOCC1)Cc1ccccc1
    2.0% | i | 0.17
> CN(C)C(=O)c1nc(C#N)c(N(C)C)o1
    7.2% | i | -0.25
> COc1ccccc1N1CCN(c2cc(=O)n(-c3ccc(Br)cc3)c(=O)[nH]2)CC1
    2.6% | i | -0.1
> O=C1c2ccccc2S(=O)(=O)N1Cc1nnc(-c2ccccc2Br)o1
    -8.7% | i | -0.61
> CC(=O)c1ccc(OCCCC(=O)N2CCN(S(=O)(=O)c3cccs3)CC2)cc1
    -0.9% | i | 1.7
> COc1ccc(C(=O)NCCSCc2ccco2)cc1OC
    -1.0% | i | -0.6
> O=C1CC(C(=O)N2CCN(c3ccc(F)cc3)CC2)CN1CCc1ccccc1 (stereo unspecified)
    -5.1% | i | -0.35
> Cc1cccc(NC(=S)NCc2cccs2)c1C
    3.6% | i | /
